# Yeast UUG start = modulators of yeast start codon fidelity, primary screen, whole organism, S. cerevisiae, single point, plate reader. S. cerevisiae UUG-firefly luciferase reporter, luminescence/redox ratio. activity score, % at 18.7 µM. 0.13% of 350,000 active. AID 602363, 2012;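 active = replicate mean at a twofold rise or more, about +100% in these data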;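 also: firefly luciferase made from a UUG start codon reports start codon fidelity; reporter light over untreated wells divided by growth signal over untreated wells; some hits fall short of that in this replicate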
# CSC inhib = cancer stem cell viability inhibitors, primary screen, luminescence | cancer stem cell-like cells viability | inhibition, % at 7.5 µM | 1.1% of 300,000 active | AID 2717, 2010;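 active = mean at 75% or more and at least half the replicates too; inconclusive = mean and replicates disagree; tested in HMLE shEcad cells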;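 also: 0% = median of negative and 100% = median of positive control wells; the first replicate is given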
# Env fusion inh = inhibitors of HIV-1 Env-driven cell-cell fusion, primary screen, HeLa-JRFL effector, CEM21 target cells, luciferase. AID 651610, 2012. inhibition, % at 12.3 µM. 1.1% of 360,000 active;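 active = mean replicate inhibition score of at least 50 and every replicate individually at or above 50; inconclusive = only one of the two criteria met; inactive = mean below 50 and not all replicates reaching 50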;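 also: 0% = plate neutral controls and 100% = maraviroc near 300 nM; one replicate is shown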
# PABP polyA inh = PABP poly(A) RNA binding inhibitors, primary screen, biochemical, fluorescence polarization, uHTS | 1% of 290,000 active | inhibition, % at 35 µM | AID 2014, 2009;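 active = 50% or more with normal probe brightness, or confirmed in later tests; inconclusive = above 50% with abnormal brightness, or retests that disagree; inactive = below 50% or failed in later tests; about a fifth of its hits are not listed in these tables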;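 also: calls also rest on retests at 20 µM and on dose response follow-up; controls were probe without protein and protein plus probe with vehicle; some compounds called inactive have numbers as strong as hits; many hits fall short of the cut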
# Target sequence (P11940 whole entry, looked up): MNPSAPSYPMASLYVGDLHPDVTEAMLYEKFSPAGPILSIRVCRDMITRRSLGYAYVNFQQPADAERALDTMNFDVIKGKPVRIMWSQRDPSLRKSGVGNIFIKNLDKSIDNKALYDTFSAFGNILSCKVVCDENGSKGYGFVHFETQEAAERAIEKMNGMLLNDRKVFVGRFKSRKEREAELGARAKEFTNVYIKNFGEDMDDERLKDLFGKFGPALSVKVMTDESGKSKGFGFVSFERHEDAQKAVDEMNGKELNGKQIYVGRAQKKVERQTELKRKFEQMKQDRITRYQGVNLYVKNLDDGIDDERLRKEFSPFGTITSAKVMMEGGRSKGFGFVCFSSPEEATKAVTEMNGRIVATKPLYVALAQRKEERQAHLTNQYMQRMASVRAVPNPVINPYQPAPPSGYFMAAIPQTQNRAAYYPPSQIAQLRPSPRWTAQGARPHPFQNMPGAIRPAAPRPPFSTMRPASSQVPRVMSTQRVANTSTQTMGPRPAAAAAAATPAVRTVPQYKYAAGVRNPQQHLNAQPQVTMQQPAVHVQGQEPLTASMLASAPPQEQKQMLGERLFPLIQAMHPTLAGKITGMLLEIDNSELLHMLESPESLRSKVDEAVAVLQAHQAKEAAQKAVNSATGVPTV
# MT1-MMP act inh = blockers of MT1-MMP proenzyme processing, primary screen, HT1080 RFP-PRO-GFP cells, GFP/RFP fluorescence; Matrix metalloproteinase-14 (Homo sapiens), P50281; GFP/RFP ratio fluorescence, overnight; percent of plate control window, DMSO zero; GFP/RFP ratio change, % at 20 µM; 0.061% of 360,000 active; AID 651647, 2012;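 active = GFP/RFP ratio change of at least 30% with cell ATP level not reduced by more than half and red fluorescence within 50% of control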; also: strong numbers were not always called active
#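 Material – HT1080 RFP-PRO-GFP cells · Control set – DMSO wells and RFP-L50D-GFP cells · Incubation – overnight cell settling, then overnight compound exposure, 37 °C, 5% CO2 · Compound dosing – single-point 20 µM compound, 1% DMSO · Read-out – GFP/RFP fluorescence ratio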
# eIF4H FP inh = human eIF4H binding inhibitors, primary screen, translation initiation inhibitor project, biochemical, uHTS, fluorescence polarization; eIF4H fluorescence polarization binding assay; 0.94% of 290,000 active; AID 2012, 2009; inhibition, % at 35 µM; Eukaryotic translation initiation factor 4H (Homo sapiens), Q15056;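 active = 50% or more with normal probe brightness, or confirmed in later tests; inconclusive = above 50% with abnormal brightness, or retests that disagree; inactive = below 50% or failed in later tests; about a fifth of its hits are not listed in these tables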;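 also: calls also rest on retests at 20 µM and on dose response follow-up; 0% = protein and probe with vehicle and 100% = probe without protein; strong numbers were not always called active; many hits fall short of the cut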
# Rce1 inhib = yeast Rce1p protease inhibitors, primary screen, biochemical, fluorescence, cell-free homogeneous. yeast membranes, quenched prenylated peptide cleavage fluorescence. calls only. 0.27% of 290,000 active;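 active = fall in fluorescence gain of 50% or more versus controls, with final raw signal at or below 3038400; inconclusive = same 50% fall but final raw signal above 3038400; inactive = fall in fluorescence gain under 50%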;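 also: plate controls were neutral control wells for no effect and wells lacking membranes for full effect; tested at 10 µM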
# Target sequence (Q03530 whole entry, looked up): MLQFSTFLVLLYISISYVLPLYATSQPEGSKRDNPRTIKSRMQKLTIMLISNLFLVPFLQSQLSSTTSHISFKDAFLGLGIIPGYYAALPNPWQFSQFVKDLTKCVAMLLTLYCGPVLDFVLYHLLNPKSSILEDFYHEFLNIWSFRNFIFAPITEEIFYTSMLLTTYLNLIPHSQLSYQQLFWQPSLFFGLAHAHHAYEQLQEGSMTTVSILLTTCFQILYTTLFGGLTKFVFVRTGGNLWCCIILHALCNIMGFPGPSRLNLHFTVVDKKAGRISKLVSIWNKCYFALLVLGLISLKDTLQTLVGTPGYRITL
# MT1-MMP act inh RFP = recorded beside MT1-MMP act inh, whose call it bears; RFP signal change, %; measured here: RFP expression control read;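 0 = vehicle wells; hits needed this value within 50% of zero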
# An asterisk follows results filed as active; i = inactive; ? = inconclusive; nt = not tested or not shown. The order is random (roughly 2.9% active in at least one column).
SMILES,Yeast UUG start,CSC inhib,Env fusion inh,PABP polyA inh,MT1-MMP act inh,MT1-MMP act inh RFP,eIF4H FP inh,Rce1 inhib
CCCCOc1ccc(N(CC(=O)NC2CCCCC2)C(=O)CCC(=O)Nc2ccccn2)cc1,-23.5,-8.8,4.7,20.6,-1.6,-4.5,-8.1,i
Cc1c(/C=N/NC(=O)C(C)(C)Oc2ccc(Cl)cc2)cnn1C,-15.3,-7.8,-6.0,3.5,9.3,1.7,1.0,i
CC(c1ccccn1)N(Cc1ccco1)C(=S)Nc1cccc(F)c1 (centres undefined),-1.3,3.3,5.8,5.6,-8.9,-12.5,-7.9,i
O=C(CCCC(=O)Nc1ccccc1Br)N/N=C/c1c(F)cccc1Cl,-5.1,nt,3.6,-9.9,2.3,1.2,-11.1,i
O=C1NC(c2cc3c(cc2Cl)OCO3)Oc2ccccc21 (centres undefined),-19.3,-1.1,-58.2,-10.3,0.5,0.4,-1.2,i
O=C(CSc1nnc(COc2ccccc2)n1-c1ccccc1)c1ccccc1,nt,53.5,-44.3,-6.3,4.2,-1.0,0.4,i
O=C(Nc1ccc(O)cc1)/C(=C\c1cccs1)NC(=O)c1ccccc1,nt,-5.4,nt,3.8,1.7,2.6,10.3,i
CCCc1nc2ccccc2n1CCOc1ccccc1,-17.1,14.2,-49.3,-3.4,15.4,3.8,-2.8,i

# One compound at a time, as listed above:
# `Cc1c(/C=N/NC(=O)C(C)(C)Oc2ccc(Cl)cc2)cnn1C` in the list: Yeast UUG start: -15.3; CSC inhib: -7.8; Env fusion inh: -6.0; PABP polyA inh: 3.5; MT1-MMP act inh: 9.3; MT1-MMP act inh RFP: 1.7; eIF4H FP inh: 1.0; Rce1 inhib: i
# `O=C(CSc1nnc(COc2ccccc2)n1-c1ccccc1)c1ccccc1` in the list: Yeast UUG start: nt; CSC inhib: 53.5; Env fusion inh: -44.3; PABP polyA inh: -6.3; MT1-MMP act inh: 4.2; MT1-MMP act inh RFP: -1.0; eIF4H FP inh: 0.4; Rce1 inhib: i

# Next section.
SMILES,Yeast UUG start,CSC inhib,Env fusion inh,PABP polyA inh,MT1-MMP act inh,MT1-MMP act inh RFP,eIF4H FP inh,Rce1 inhib
Cc1cccc(C(=O)NCCNC(=O)c2cccc(C)c2)c1,-19.3,-5.5,1.8,-5.9,1.1,3.7,-2.9,nt
Cc1ccc(S(=O)(=O)NC(C)C(=O)NC2CCCCCC2)cc1 (centres undefined),-11.1,4.7,nt,1.9,5.0,-0.2,-5.8,i
Cn1c2c(c(=O)n(C)c1=O)CN(Cc1ccc(F)cc1)CN2,-10.9,12.2,nt,-11.2,-1.7,-4.7,-6.2,i
Cc1cccc(NC(=O)CN2C(=O)N/C(=C\c3ccc(-c4cccc(C(=O)O)c4)o3)C2=O)c1,nt,0.3,-8.7,72.0*,3.0,6.2,79.2*,i
COc1ccc(N2CCN(C(=O)CNC(=O)c3cn(-c4ccccc4OC)c(=O)c4ccccc34)CC2)cc1,nt,-8.3,4.2,48.4,-4.7,-5.0,48.7,i
O=C(O)c1ccccc1-c1ccccc1C(=O)Nc1ccc2c(c1)oc(=O)c1ccccc12,2.4,nt,7.0,nt,0.5,4.1,nt,nt
COc1ccc(CNC(=O)c2noc3c2CCCC3)cc1,1.5,nt,7.4,3.3,8.0,-2.6,7.7,i
COc1ccc2oc(C(=O)OCC(=O)NCCN3C(=O)CSC3=O)c(C)c2c1,nt,nt,nt,-7.7,2.5,-3.1,7.1,i
O=C(Cn1nnc2ccccc2c1=O)N[C@H](C(=O)O)c1ccccc1,nt,-15.2,-3.4,-6.0,-0.3,1.9,5.2,i
Cc1cc(=O)oc2cc(OCC(=O)Nc3nccs3)ccc12,-9.2,-11.0,-56.2,6.7,0.5,0.9,-0.2,i
Cc1onc(-c2c(F)cccc2Cl)c1C(=O)OCC(=O)Nc1c(C)n(C)n(-c2ccccc2)c1=O,1.5,5.8,-110.8,-5.9,3.0,-1.7,10.9,i
COC(=O)C1C(=O)C2=C(CC1C)NC(=O)CC2c1ccccc1 (centres undefined),2.0,-17.9,nt,-0.6,2.0,5.3,-1.0,nt
O=C(O)Cc1sc(NC2CCCCC2)nc1-c1ccc(Cl)cc1,-10.6,2.7,-5.9,?,-46.9,-4.2,?,i
Cc1nn(C)c(C)c1S(=O)(=O)N1CCC(C(=O)NC2CCCc3ccccc32)CC1 (centres undefined),-10.0,-10.4,-58.6,3.0,-6.9,3.5,-0.5,i
CCOc1nc(-c2ccccc2)ccc1-c1noc(COC)n1,-2.8,nt,10.1,4.7,-9.1,-9.1,-0.5,i
CCC(=O)Nc1ccc(C(=O)COC(=O)c2nc3nccc(C)n3n2)cc1,-9.4,-8.7,nt,nt,-1.2,1.2,nt,nt
O=C(Nc1ccccn1)c1ccc(COc2ccccc2Cl)o1,-10.9,-12.7,-456.5,9.1,1.1,2.0,-2.6,i
Cc1ccc(CCN2CC(C(=O)NCCCN3CCCCCC3)CC2=O)cc1 (centres undefined),nt,-17.6,nt,35.4,6.5,-1.0,24.7,i
CC(C)C(=O)N1CCC1(C)C(=O)Nc1ccccc1OC(F)F (centres undefined),-6.3,nt,7.6,nt,-3.8,0.4,nt,nt
O=S(=O)(Nc1cccc2ccccc12)c1cccc2nonc12,-1.1,-11.7,-2.6,4.7,-5.8,-0.3,2.7,i
COc1cc(C(O)P(=O)(OCCC(C)C)c2ccc(N(C)C)cc2)cc(OC)c1OC (centres undefined),1.3,-2.6,10.6,-1.1,-2.8,-5.7,0.7,i
C=CCc1ccccc1OCC(CN1CCCCC1)OC(C)=O (centres undefined),8.4,-2.9,nt,14.1,-1.3,2.8,13.7,i
CCOCCCNC(=O)C(c1ccc(Cl)cc1)N(Cc1cccs1)C(=O)c1ccccn1 (centres undefined),nt,-8.1,8.9,-7.3,-3.2,0.9,-9.0,i
CCCCC(NS(=O)(=O)c1ccc(C)cc1)C(=O)Oc1ccc2c3c(c(=O)oc2c1)CCC3 (centres undefined),-13.0,2.7,-13.0,6.9,6.4,3.7,-3.5,i
CCCN(CCC)Cc1cc2ccccc2c2c1COC2,-18.1,-9.2,nt,6.9,0.4,2.5,3.3,i
C/C(=N\NC(=O)Cc1cccn1C)c1ccc2ccccc2c1,-13.4,-3.3,nt,4.7,-3.3,-3.5,1.7,i
COc1cccc2cc(C(=O)CS(=O)(=O)c3ccc(Cl)cc3)c(=O)oc12,-17.7,-5.1,7.5,14.5,-3.2,-4.7,30.4,i
O=c1oc2cc(O)ccc2cc1-c1ccccc1,-13.5,22.7,-32.8,6.8,1.6,0.8,2.8,i
CCCOc1ccc(C(F)(F)F)cc1NS(=O)(=O)c1ccc(Cl)nc1,-17.3,nt,5.1,nt,-0.4,-11.6,nt,nt
COc1ccc(C(=O)Nn2c(C)nc3ccccc3c2=O)cc1[N+](=O)[O-],nt,-8.7,-4.8,-6.5,-0.1,1.1,-7.1,i
CN1CCN(C(=O)C2=C[C@H](c3coc4ccccc4c3=O)C[C@H](OCc3ccc(CO)cc3)O2)CC1,8.3,-4.8,-34.4,0.3,0.5,-4.8,-6.6,i
O=C(C[C@@H]1C/C=C\C[C@@H](Cc2ccc(F)cc2)C(=O)OCCNC1=O)NCCO,-14.2,nt,-12.4,nt,-0.1,-1.3,nt,nt
Cc1oc2cc(O)ccc2c(=O)c1N1C(=O)c2ccccc2C1=O,-7.2,7.9,14.2,-0.7,1.8,8.2,-5.2,i
O=C(Nc1nccs1)C1CCN(S(=O)(=O)c2ccc3c(c2)OCCCO3)CC1,-10.1,2.8,nt,-0.8,4.2,-5.3,0.5,i
Cc1ccc(C(=O)NC2CCN(C(=O)Nc3ccc(F)cc3)CC2)cc1,-15.5,-2.3,9.0,10.6,3.1,2.7,-1.9,i
O=C(CSc1n[nH]c(-c2cccs2)n1)NCCc1ccccc1,nt,7.6,nt,nt,-7.3,1.5,nt,i
CC1=N/C(=C\c2ccc([N+](=O)[O-])cc2)C(=O)N1c1ccc(Cl)cc1,-4.4,20.2,-21.5,-5.1,-0.7,3.2,-0.1,i
COC(=O)CSc1nnc(C)c(=O)[nH]1,-13.0,-3.7,nt,2.4,-1.6,-4.2,0.6,i
C=C[C@]1(C)C=C2C(=O)[C@@]3(O)OC(=O)[C@@]4(CCCC(C)(C)[C@H]34)[C@@]2(O)CC1,-76.2,nt,-23.1,nt,-9.4,-20.1,nt,nt
Cc1ccc(NC(=O)COC(=O)c2cccc(N3C(=O)c4ccccc4C3=O)c2)cc1,-11.0,-15.0,18.3,5.6,-0.7,2.3,0.3,i
Cc1ccc(C(=O)N2CC(=O)Nc3ccc(F)cc3C2c2ccc(F)cc2)cc1 (centres undefined),-6.2,-7.4,8.1,-11.1,-5.4,-2.1,-2.8,i
CCCCn1c(N)c(N(CC)C(=O)C2CCC2)c(=O)[nH]c1=O,-11.1,nt,-12.7,nt,3.9,3.2,nt,nt
CCc1ccc(-c2cc(C)no2)cc1S(=O)(=O)N1CCN(c2cc(C)ccc2C)CC1,-19.5,23.5,3.9,-1.0,-3.4,-8.6,-1.3,i
O=C(COC(=O)c1ccccc1)Nc1cccc(S(=O)(=O)N2CCCCC2)c1,-3.1,nt,4.3,nt,4.8,4.1,nt,nt
COc1ccc(/C=N\N=C2/SC(CC(=O)O)C(=O)N2c2ccc(O)cc2)cc1OC (centres undefined),nt,3.9,-1.4,8.4,0.6,0.8,0.6,i
c1ccc(Cn2nnnc2C(c2cccs2)N2CCSCC2)cc1 (centres undefined),-10.3,-8.7,23.1,6.3,0.7,-3.5,-5.4,i
Cc1cc([N+](=O)[O-])ccc1NC(=O)CCC(=O)N1CCCCCC1,-5.0,-6.0,1.3,-3.1,1.6,-0.5,9.3,i
CCc1ccc2c(c1)C(c1ccc([N+](=O)[O-])cc1)=NNC(c1ccc(Br)cc1)=N2,nt,15.4,6.1,0.0,-3.0,-5.5,5.8,i
Cn1c(NCc2cccnc2)nc2c1c(=O)n(Cc1ccccc1F)c(=O)n2C,-8.0,2.3,26.9,-4.4,15.3,-2.4,-11.2,i
Cc1ccc(NC(=O)CSCC(=O)NCCc2ccccc2)c(C)c1,-10.2,4.1,nt,nt,-3.7,-0.7,nt,nt
Cc1cc(C(=O)COc2ccc(-c3nnco3)cc2)c(C)n1Cc1ccccc1,-23.0,nt,65.2*,10.4,-0.1,-16.3,1.7,i
Cc1cc(C)cc(-n2ncc3c2CCCC3NC(=O)c2cc(C)oc2C)c1 (centres undefined),-10.0,10.1,2.7,10.6,-7.2,-18.0,-1.1,i
COc1ccc([N+](=O)[O-])cc1N(CC(O)CN1C(=O)NC(C)(C)C1=O)S(=O)(=O)c1ccc(C)cc1 (centres undefined),1.9,nt,-12.8,nt,-0.3,1.7,nt,nt
CCCN1Cc2cccc(C(=O)NC(CC(=O)OCC)c3ccc(OC(C)C)cc3)c2C1=O (centres undefined),nt,-13.8,16.7,10.5,-6.1,-1.7,-1.6,i
O=C(CNC(=O)c1ccc2c(c1)OCCO2)N/N=C/c1ccc(Cl)cc1,nt,-9.2,9.5,?,1.8,10.7,3.2,i
O=C(Cc1ccsc1)NCC(c1ccco1)N1CCCCC1 (centres undefined),-0.5,13.2,-253.2,-7.7,-1.5,13.8,-1.6,i
COc1ccc(-n2cnnc2)cc1,-10.6,-15.6,nt,-0.8,1.0,-0.3,-0.7,i
